Screens deposited in PubChem by National Center for Advancing Translational Sciences (NCATS).
PMP22 txn = PMP22 gene transcription modulation; 43,000 compounds, 2% hits; AID 1508649; Potency, µM (titrated, usually from 57.5 µM), for inactives: at the top dose activity change, negative = inhibition, most hits filed as inhibitors; S16 Pmp22-F2sN Schwann cells (luciferase reporters placed in the Pmp22 gene), FLuc/NLuc coincidence luminescence, 24 h; active = clear falling dose curves in both reporters; inconclusive = both reporters move, but less clearly or upward; inactive = either reporter flat; the % is the NLuc reporter signal; note: % is set by controls: 0 for no effect and ±100 for the full control effect; some results filed as inactive show a strong effect at the top dose
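Reporter cells (S16 Pmp22-F2sN, 500–1,000 per well) exposed to compounds for 24 h, 37C, 5% CO2; lysis with FLuc read after 10 min, then Stop&Glo and NLuc read after 10 min.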
HTT promoter inh = inhibitors of huntingtin promoter activity. HEK293 HTT promoter firefly luciferase reporter (activity 0% = vehicle and -100% = no light), 24 h. Potency, µM (doses to about 57.5 µM), for the others: at the top dose activity change, negative = inhibition, hits mostly inhibitors. 48,000 compounds, 0.93% hits. AID 1508623; active = well fitted inhibition curve with a large enough effect; inconclusive = small, poorly fitted or top-dose-only effect; inactive = no such curve, though single readings can be large or run the other way; note: nearly all actives have a fitted effect of over 50% in size
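Firefly luciferase signal from promoter-reporter HEK293 cells was scaled between vehicle (0%) and zero RLU (-100%). Compounds were tested at final concentrations of up to 57.5 uM over 24 h at 37 degrees C. PTC124 at 50 uM final served as control inhibitor.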
Active calls of the source: *; ? = inconclusive; · = not tested or not shown; & = joins results of further samples; [ ] = another dose, or the depositor's remark. Potency is the fitted concentration of half-maximal effect. This is a subset, so the mix of outcomes need not match the whole.

1. CCC(C)(C)c1ccc(O)cc1
2. O=C(Nc1ccc(Cl)cc1C(=O)c1ccccc1)c1ccccc1Br
3. CCN(CC)CCOC(=O)C(C)(c1ccccc1)c1ccccc1
4. Cc1ccc(S(=O)(=O)N[C@@H](CCCCN)C(=O)CCl)cc1
5. O=C(Nc1ccc2c(c1)OCCO2)c1cccn(Cc2ccccc2)c1=O
Screen / compound no.	1	2	3	4	5
PMP22 txn	·	-7%	·	·	9%
HTT promoter inh	9%	-12%	1%	10%	-16%

6. O=C(Nc1ccon1)c1cccn(Cc2cccc([N+](=O)[O-])c2)c1=O
7. O=C1CN=C(c2ccccc2Cl)c2cc(Cl)ccc2N1Cc1cccc(Cl)c1
8. COc1ccc2c(c[n+](C)c3c4cc5c(cc4ccc23)OCO5)c1OC
9. O=C(Nc1ccccc1C(F)(F)F)c1cccn(Cc2ccccc2)c1=O
10. CCOC(=O)NC(O)C(Cl)(Cl)Cl (stereo not given)
Screen / compound no.	6	7	8	9	10
PMP22 txn	-7%	-25%	·	-16%	·
HTT promoter inh	-14%	?	?	-14%	-3%

11. CCOC(=O)c1ncn2c1CN(C)C(=O)c1c(I)cccc1-2
12. COc1ccc(NC(=O)CCc2nc(C3=CCN(Cc4cccc(Cl)c4)CC3)no2)cc1OC
13. Nc1ccccc1
14. CC(C(=O)c1ccccc1)N(C)C (stereo not given)
15. CCc1ccc(-n2nc(C)c3c2NC(=O)CSC3c2ccc(C(=O)OC)cc2)cc1 (stereo not given)
Screen / compound no.	11	12	13	14	15
PMP22 txn	·	-19%	·	·	?
HTT promoter inh	-1%	?	16%	3%	?

16. CNC(C)Cc1ccccc1OC (stereo not given)
17. CCO/N=C(\CC)C1=C(O)CC(c2c(C)cc(C)cc2C)CC1=O (stereo not given)
18. CCN(CC)C(=O)c1ccc(NC(=O)CCn2nc(-c3ccc(Cl)cc3)c3ccccc3c2=O)cc1
19. Cc1ccccc1-n1nc(C)c2c1NC(=O)CSC2c1ccc(N(C)C)cc1 (stereo not given)
20. CN(C)c1ccc(NC(=O)c2sc3nc4c(cc3c2N)N2CCC4CC2)cc1
Screen / compound no.	16	17	18	19	20
PMP22 txn	·	·	?	-7%	-1%
HTT promoter inh	-1%	-3%[116 µM]	?	?	-7%

21. O=c1c2ccccc2nc(/C=C\c2ccc(F)cc2)n1-c1ccccc1F
22. O=C(O)CCCCCCNC1c2ccccc2CCc2ccccc21
23. Cc1ccccc1CN1C(=O)CN=C(c2ccccc2)c2cc(Cl)ccc21
24. COc1ccc(CN2CCN(C(=O)COc3ccccc3)CC2)c(OC)c1
25. C#CC(O)(C=CCl)CC (stereo not given)
Screen / compound no.	21	22	23	24	25
PMP22 txn	?	·	?	?	·
HTT promoter inh	?	-7%	?	-27%	15%

26. O=c1c2ccccc2nc(/C=C/c2ccccc2F)n1-c1cccc(O)c1
27. CC(C)N(CCC(C(N)=O)(c1ccccc1)c1ccccn1)C(C)C (stereo not given)
28. COc1ccccc1N1CCNCC1
29. COc1ccc(Cc2nccc3cc(OC)c(OC)cc23)cc1OC
30. CO[C@H]1CCC(O[C@H]2C[C@H]([C@]3(C)CC[C@]4(C[C@H](O)[C@@H](C)[C@@H]([C@@H](C)C=C(C)C(=O)[C@H](C)C[C@H](C)C(=O)O)O4)O3)O[C@]3(O[C@@H]([C@H]4O[C@@](O)(CO)[C@H](C)C[C@H]4C)C[C@H]3C)[C@H]2C)O[C@H]1C (stereo not given in full)
Screen / compound no.	26	27	28	29	30
PMP22 txn	-24%	·	·	·	·
HTT promoter inh	-4%	7%	-5%	-11%&-29%	?

31. COc1ccc(-c2nc(CN3C(=O)CN=C(c4ccccc4)c4cc(Cl)ccc43)c(C)o2)cc1
32. CN1C[C@H](CNC(=O)OCc2ccccc2)C[C@@H]2c3cccc4c3c(cn4C)C[C@H]21
33. [N-]=[N+]=CC(=O)OC[C@H](N)C(=O)O
34. O=c1[nH]c2ccccc2n1C1CCN(Cc2ccc(-c3[nH]c4cc5ncnc5cc4nc3-c3ccccc3)cc2)CC1
35. COc1cccc([C@@]2(O)CCCC[C@@H]2CN(C)C)c1
Screen / compound no.	31	32	33	34	35
PMP22 txn	?	·	·	·	·
HTT promoter inh	?	-21%	5%	?	3%

Single records, as listed above. Order of values: PMP22 txn	HTT promoter inh
`CN1C[C@H](CNC(=O)OCc2ccccc2)C[C@@H]2c3cccc4c3c(cn4C)C[C@H]21` across the screens: ·	-21%
`COc1ccc(-c2nc(CN3C(=O)CN=C(c4ccccc4)c4cc(Cl)ccc43)c(C)o2)cc1` across the screens: ?	?
`[N-]=[N+]=CC(=O)OC[C@H](N)C(=O)O` across the screens: ·	5%
`O=c1[nH]c2ccccc2n1C1CCN(Cc2ccc(-c3[nH]c4cc5ncnc5cc4nc3-c3ccccc3)cc2)CC1` across the screens: ·	?
`COc1cccc([C@@]2(O)CCCC[C@@H]2CN(C)C)c1` across the screens: ·	3%

Other results:
36. CCO[C@H]1O[C@@H]2OC3(C)CC[C@H]4[C@H](C)CC[C@@H]([C@H]1C)[C@@]24OO3
37. CC(C)(O)C(=O)Nc1ccc([N+](=O)[O-])c(C(F)(F)F)c1
38. CC(C)(C)NCC(O)c1cc(Cl)c(N)c(Cl)c1 (stereo not given)
39. CC1=C2[C@H]3OC(=O)[C@@H](C)[C@@H]3CC[C@@]2(C)C=CC1=O
40. CC(C)c1ccc(NC(=O)CN2C(=O)CN=C(c3ccccc3)c3ccccc32)cc1
Screen / compound no.	36	37	38	39	40
PMP22 txn	·	·	·	·	0%
HTT promoter inh	-23%	-14%	6%	-3%	-15%

In another format: three of the compounds above
Second line of a record: PMP22 txn	HTT promoter inh
#18 CCN(CC)C(=O)c1ccc(NC(=O)CCn2nc(-c3ccc(Cl)cc3)c3ccccc3c2=O)cc1
 : ?	?
#40 CC(C)c1ccc(NC(=O)CN2C(=O)CN=C(c3ccccc3)c3ccccc32)cc1
 : 0%	-15%
#25 C#CC(O)(C=CCl)CC (stereo not given)
 : ·	15%

New compounds follow.
41. CC(=O)C1CCOC1=O (stereo not given)
42. Cc1cc(OCC(=O)N2CCN(CCc3ccncc3)CC2)ccc1Cl
43. CCC(=O)OC1(c2ccccc2)CCN(C)CC1
44. C[C@]12C=CC(=O)C=C1CC[C@@H]1[C@@H]2CC[C@@]2(C)[C@H]1CC[C@]2(C)O
45. NCC(CC(=O)O)c1ccc(Cl)cc1 (stereo not given)
46. CCC1(CC)C(=O)NC(=O)NC1=O
47. C[C@@H]1[C@@H](C(=O)C[C@H]2O[C@@H]3O[C@]4(C)CC[C@@H]5[C@H](C)CC[C@@H]([C@H]2C)[C@@]35OO4)O[C@@H]2O[C@]3(C)CC[C@H]4[C@H](C)CC[C@@H]1[C@@]24OO3
Screen / compound no.	41	42	43	44	45	46	47
PMP22 txn	·	-39%	·	·	·	·	·
HTT promoter inh	0%	-13%	1%[116 µM]	-22%	-3%[0.739 µM]	-8%	?

Sorted by heavy-atom count (low to high): part of the list above
45. NCC(CC(=O)O)c1ccc(Cl)cc1 (stereo not given)
43. CCC(=O)OC1(c2ccccc2)CCN(C)CC1
44. C[C@]12C=CC(=O)C=C1CC[C@@H]1[C@@H]2CC[C@@]2(C)[C@H]1CC[C@]2(C)O
47. C[C@@H]1[C@@H](C(=O)C[C@H]2O[C@@H]3O[C@]4(C)CC[C@@H]5[C@H](C)CC[C@@H]([C@H]2C)[C@@]35OO4)O[C@@H]2O[C@]3(C)CC[C@H]4[C@H](C)CC[C@@H]1[C@@]24OO3
Screen / compound no.	45	43	44	47
PMP22 txn	·	·	·	·
HTT promoter inh	-3%[0.739 µM]	1%[116 µM]	-22%	?
